# PKD1 kinase inh: PKD1 (human) kinase inhibition | inhibition, %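 (about 10 µM by stock and volumes)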 | Q15139 | 200,000 tested, 0.056% active | PKD1 kinase fluorescence polarization assay | AID 797;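 active means inhibition of 50% or more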;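 further: controls were vehicle for no effect and a reference inhibitor for full effect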
# HSV augment: increases HSV replication in cells; HSV replication augmentation in cells, fold increase; maximum fold increase; 220,000 tested, 0.005% active; AID 1956;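 active means peak rise of 1.5-fold or more in the series; inconclusive means self-fluorescent or not available for retest; tested in PC3 cells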;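 further: first round at 10 µM; read as green reporter fluorescence; hits show the peak of a series up to 25 µM; 1 = signal of infected wells without compound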
# GALR2 agonist: activates the human galanin receptor 2 | O43603 | GALR2-expressing cells, agonist activation read-out | activation, %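 (tested at 5 µM)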 | 140,000 tested, 0.48% active | AID 803;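 active means above mean plus 3 SD of all compounds, about 5% in these data, not always enough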;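 further: 0% = vehicle buffer wells and 100% = reference agonist at full effect; tested in CHO reporter cells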
# Target sequence (O43603 whole entry, looked up): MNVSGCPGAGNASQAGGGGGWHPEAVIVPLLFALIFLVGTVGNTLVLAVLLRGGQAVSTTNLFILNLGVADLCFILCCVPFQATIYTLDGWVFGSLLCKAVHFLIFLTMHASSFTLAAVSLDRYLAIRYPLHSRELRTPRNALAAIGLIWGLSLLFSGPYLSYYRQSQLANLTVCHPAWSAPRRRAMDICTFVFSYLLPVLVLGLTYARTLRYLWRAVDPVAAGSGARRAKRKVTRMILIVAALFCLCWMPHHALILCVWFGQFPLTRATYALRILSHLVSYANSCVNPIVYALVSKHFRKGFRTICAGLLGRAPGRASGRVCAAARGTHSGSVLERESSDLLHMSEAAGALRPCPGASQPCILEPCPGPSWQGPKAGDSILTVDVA
# Insulin prom inh: TRM-6 insulin promoter activity inhibition | TRM-6 cells (human fetal islet line), insulin promoter-eGFP reporter, imaging; reporter expression induced with tamoxifen | inhibition, % at 2 µM | 130,000 tested, 0.9% active | AID 1273;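 active means inhibition above the mean plus 3 SD, with well images judged a real hit on visual review, cut at about 60% in these data, passing the limit was not always enough; inconclusive means inhibition over the cutoff but images rejected on review; inactive means inhibition not above the cutoff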
# RGS16-Gao HTS: modulates binding between human RGS16 and Galphao | O15492+P09471 | 220,000 tested, 0.38% active | bead-based flow cytometry RGS16-Galphao binding, fluorescence; actives lie on both sides | binding response (% of control), % at 10 µM;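 active means below 25% or above 175%, edge rows of some plates excepted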;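 further: Galphao activated by GDP with aluminum fluoride before binding; 100% = wells without compound and 0% = beads without RGS; some results beyond the cut were filed as inactive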
# Target sequence (O15492 whole entry, looked up): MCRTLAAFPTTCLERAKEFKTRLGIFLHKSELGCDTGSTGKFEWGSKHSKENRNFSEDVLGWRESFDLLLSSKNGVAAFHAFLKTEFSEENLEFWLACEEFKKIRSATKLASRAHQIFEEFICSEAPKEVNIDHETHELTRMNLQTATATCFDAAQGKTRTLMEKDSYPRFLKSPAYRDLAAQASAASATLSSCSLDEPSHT
# Target sequence (P09471 whole entry, looked up): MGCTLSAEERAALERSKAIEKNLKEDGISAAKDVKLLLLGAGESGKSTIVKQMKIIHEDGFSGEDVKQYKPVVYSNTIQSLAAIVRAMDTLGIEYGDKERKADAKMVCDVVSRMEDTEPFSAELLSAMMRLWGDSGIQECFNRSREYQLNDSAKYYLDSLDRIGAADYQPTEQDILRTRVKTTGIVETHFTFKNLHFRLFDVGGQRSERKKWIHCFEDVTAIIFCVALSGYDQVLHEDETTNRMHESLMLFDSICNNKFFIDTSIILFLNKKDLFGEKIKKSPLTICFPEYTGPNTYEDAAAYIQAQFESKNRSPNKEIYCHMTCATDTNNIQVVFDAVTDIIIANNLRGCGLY
# Insulin prom inh cell count: also measured in Insulin prom inh; calls as there; normalized cell count, %; measured here: cell count, toxicity; reference of the scale not given here;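 cells exposed to compound for 48 h; stained nuclei by imaging scaled within each plate; lower means fewer cells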
# HSV augment primary fold: further read-out of HSV augment, marked with its call; fold increase; compound at 10 µM; measured here: primary screen fold increase 10 uM; tested in PC3 cells;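 GFP signal in the first replicate; 1 = infected wells without compound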
# Starred values were filed as active, the others as inactive; i = inactive; ? = inconclusive; . = no result given; [ ] = remark or other dose.
canonical_smiles,PKD1 kinase inh,HSV augment,HSV augment primary fold,GALR2 agonist,Insulin prom inh,Insulin prom inh cell count,RGS16-Gao HTS
CSc1nc2ccc(NC(=O)C3CC(=O)N(Cc4ccco4)C3)cc2s1 (stereo not given),-15,i,0.93,-2.3,-10,95,92
COc1ccc(C(C)NC(=O)c2cccc([N+](=O)[O-])c2)cc1OC (stereo not given),-11,i,0.88,-1.6,12,89,103
CCOc1c(C(N)=O)cc([N+](=O)[O-])cc1[N+](=O)[O-],-1,i,0.98,-0.3,25,124,108
C=CCOC(=O)C(=O)/C=C/c1ccc2c(c1)Cc1ccccc1-2,3,i,1,.,.,.,98
Cc1ccccc1NS(=O)(=O)c1cc(S(C)(=O)=O)ccc1Cl,1,i,1.3,-0.5,13,24,105
CCCOc1ccc(OCCOCCNCc2ccccc2)cc1,4,i,0.84,-1.2,-18,111,100
COc1cccc(C(=O)N/N=C/c2cn[nH]c2-c2ccc(OC)cc2OC)c1,1,i,0.88,-1.4,-4,125,102
O=C(Cc1ccccc1[N+](=O)[O-])Nc1ccccc1C(=O)N1CCCC1,0,i,1,.,.,.,111
CN(C)c1ccc(/C=N/NC(=O)c2cc(-c3ccc4c(c3)OCO4)n[nH]2)cc1,.,i,0.86,.,.,.,97
CCOc1ccccc1NC(=O)CSc1ncnc2c1oc1ccccc12,2,i,0.67,0.5,.,.,101
Cc1nc(SCC(=O)NC(=O)NCc2ccccc2)nc(C)c1C,5,i,1,-2.8,28,133,94
Fc1cccc(CSc2nc3ncccc3[nH]2)c1,2,i,0.93,-3.6,22,125,65
COCCN1Cc2cccc(C(=O)NCc3ccccn3)c2C1=O,-6,i,0.98,-1.4,.,.,120
COc1ccccc1Nc1nc(N)nc(CSc2nccn2C)n1,6,i,0.92,.,.,.,106
CSc1ccccc1NC(=O)CN(C)Cc1ccc(Br)cc1,3,i,1.1,-0.3,.,.,103
CCC1=C(OC(=O)N(CC)CC)N2C(=O)OC(=NCCc3c[nH]c4ccccc34)[C@]2(Cc2ccccc2)[C@H]2C1=CC[C@H]1C(=O)NC(=O)[C@H]12,.,i,0.82,.,.,.,98
CC(C(=O)NCc1cccs1)n1cccc1 (stereo not given),-11,i,0.98,-1.1,-64,55,101
CSc1ccccc1C(=O)NCc1cccnc1,-4,i,0.97,.,.,.,104
Cc1cc(Br)c2c(c1)=C(c1sc(N3CCCCCC3)nc1O)C(=O)N=2,-15,i,0.72,-0.8,33,97,29
O=S(=O)(c1ccc(Oc2ncnc3scc(-c4ccccc4)c23)cc1)N1CCOCC1,0,i,0.9,0.0,0,107,99
CCOC(=O)CCCNC(=O)COC(=O)[C@@H]1CCCN1S(=O)(=O)c1ccc(Cl)cc1,-7,i,1,-0.6,.,.,100
COc1ccc2nc(N/C(N)=N/C(=S)Nc3c(C)cccc3C)nc(C)c2c1,2,i,0.73,.,.,.,203*[activator]
CCC(C)(C)NC(=S)Nc1ccccc1C,-6,i,1,.,.,.,93
COc1ccccc1C1CC(c2ccco2)=NN1c1ccccc1 (stereo not given),-10,i,1.5,4.1,.,.,127
CN(C)c1ccc(C(=S)NC2CCCCC2)cc1,2,i,0.93,.,.,.,77
O=c1nc(SCc2cccc(C(F)(F)F)c2)nc2ccccn12,-3,i,0.89,.,11,121,96
N#C/C(=C\c1cc([N+](=O)[O-])c(N2CCCCC2)cc1N1CCCCC1)c1nn(-c2ccccc2)c(N)c1C#N,10,i,0.88,-2.1,.,.,35
O=[N+]([O-])c1ccc2nc(SCc3ccccc3Cl)sc2c1,1,i,0.87,-0.2,.,.,95
COc1ccc2nc(Nc3ccc4c(c3)OCO4)sc2c1,1,i,0.91,-1.4,.,.,107
N#Cc1ccc(OCC(=O)Nc2cc(S(=O)(=O)N3CCCCC3)ccc2N2CCCCC2)cc1,-7,i,0.94,1.8,-60,98,103
COc1ccc(NC(=O)/C=C/c2ccc3c(c2)OCO3)cc1,-2,i,1.1,.,-22,50,126
Fc1ccc(NC(=S)Nc2cccc3cnccc23)cc1,2,i,0.85,.,-25,100,103
Cc1nn(C)c(C)c1CNC(=O)Nc1cccc(Cl)c1,-1,i,0.93,.,29,118,103
COc1ccccc1CNC(=O)CN1CCC(n2cnc3cc(F)ccc32)CC1,-12,i,0.94,0.1,7,50,117
CC(=O)NCCCc1nc2ccccc2n1Cc1cc(C)ccc1C,1,i,0.94,.,.,.,93
O=[N+]([O-])c1ccc2ncnc(Nc3ccc4c(c3)OCCO4)c2c1,-3,i,0.77,.,8,35,83
CCN1CCN(C(c2ccc(F)cc2)c2nnnn2Cc2ccc3c(c2)OCO3)CC1 (stereo not given),1,i,0.93,.,.,.,106
CCc1cc(C(=O)N=Nc2c(O)[nH]c3c(Br)cc(Br)cc23)c2ccccc2n1,-16,i,0.9,2.1,7,105,103
Cc1c(NC(=S)Nc2ccccc2)c(=O)n(-c2ccccc2)n1C,-4,i,1.1,3.2,-17,103,95
CC(C)C(=O)N1c2ccccc2NC2=C(C(=O)CCC2)C1c1ccc(N(C)C)cc1 (stereo not given),0,i,0.99,-1.6,7,96,104

# Arranged by length of the SMILES (descending): 3 of the compounds above
canonical_smiles,PKD1 kinase inh,HSV augment,HSV augment primary fold,GALR2 agonist,Insulin prom inh,Insulin prom inh cell count,RGS16-Gao HTS
CCN1CCN(C(c2ccc(F)cc2)c2nnnn2Cc2ccc3c(c2)OCO3)CC1 (stereo not given),1,i,0.93,.,.,.,106
COc1ccccc1CNC(=O)CN1CCC(n2cnc3cc(F)ccc32)CC1,-12,i,0.94,0.1,7,50,117
COc1ccc(NC(=O)/C=C/c2ccc3c(c2)OCO3)cc1,-2,i,1.1,.,-22,50,126

# Remaining list, next part.
canonical_smiles,PKD1 kinase inh,HSV augment,HSV augment primary fold,GALR2 agonist,Insulin prom inh,Insulin prom inh cell count,RGS16-Gao HTS
CC(Oc1ccccc1Cl)C(=O)N1CCOCC1 (stereo not given),-1,i,0.97,-3.4,16,136,106
Cc1ccc(C(NC(=O)N2CCN(C)CC2)C(Cl)Cl)cc1F (stereo not given),-3,i,0.96,.,.,.,103
O=C(N/N=C/c1ccc(Br)s1)c1cccc([N+](=O)[O-])c1,3,i,0.85,-2.1,2,109,86
O=C(Cn1cnc([N+](=O)[O-])n1)N/N=C/c1cccc(Cl)c1,-1,i,0.82,.,20,55,86
C=CCc1cccc(/C=N/NC(=O)CCC(=O)Nc2ccc(C)cc2)c1O,1,i,0.94,-0.3,0,167,106
Cc1nc2c(-c3ccccc3)c(C)nn2c(C)c1CCC(=O)NC(C)CCc1ccco1 (stereo not given),0,i,0.85,-2.0,.,.,104
CCC(=O)N1CCc2cc(Br)cc(S(=O)(=O)CCC(=O)NCCc3ccccc3)c21,-6,i,0.81,-2.6,-31,99,99
O=C(CN1CCSC1=NCc1ccccc1)c1ccc(Cl)cc1,10,i,0.99,-2.2,-50,102,111
O=C(Nc1ccccc1C(=O)OCC(=O)N1CCc2ccccc2C1)c1ccco1,-8,i,0.92,-1.4,6,99,102
COc1cccc(-c2nnc(-c3ccccc3[N+](=O)[O-])o2)c1,.,i,0.91,.,.,.,97
CCOCC(=O)Nc1cc([N+](=O)[O-])ccc1C,1,i,0.97,-1.3,29,25,57
CC1CCOC2(O1)C(=O)N(CN1CCN(c3ccccc3F)CC1)c1ccccc12 (stereo not given),3,.,.,-2.5,-6,88,100
O=C1C(Cl)=C(Nc2ccc3cn[nH]c3c2)C(=O)c2ccccc21,.,i,0.85,.,.,.,61
O=C(COc1ccc(Cl)cc1Br)NNC(=O)C(=O)N1CCCCC1,12,i,0.99,21*,-62,131,108
Cc1ccnc(NC(c2ccccc2O)c2oc(CO)cc(=O)c2O)c1 (stereo not given),4,i,0.84,.,-14,160,106
CCOC(=O)c1[nH]c(C)c(CN(CCc2ccc(OC)c(OC)c2)C(=O)CCCC(=O)O)c1C,2,i,1,-1.3,.,.,98
O=C(NNc1cc(C(F)(F)F)nc2ccccc12)Nc1cccc(Cl)c1,.,i,0.83,.,.,.,101
O=C(/C=C/c1cccs1)N1CCN(c2ccc(O)cc2)CC1,0,i,0.8,.,43,74,78
Cc1ccc2c(c1)Sc1c(ccc3ccccc13)N2,.,i,1.1,.,.,.,102
CCN1CCN(Cc2ccc(NC(=O)c3cc(NC(=O)c4ccno4)cc(OC)c3)cc2C(F)(F)F)CC1,.,i,0.77,.,.,.,104
O=C(NCc1cccs1)c1nc2ncccn2n1,-5,i,1,1.9,41,87,100
O=C(CCCn1c(=O)[nH]c2ccccc2c1=O)NCCSCc1ccccc1,-4,i,1,.,-13,68,93
Nc1ccc(S(=O)(=O)c2ccc(N)c(N)c2)cc1,-5,i,0.92,.,0,41,101
O=C1c2ccccc2C(=O)N1CCOCCN1C(=O)c2ccccc2C1=O,6,i,1,0.2,-21,92,93
CC(C)(C)NC(=O)CN(C(=O)CNS(=O)(=O)c1ccccc1)c1ccc2c(c1)OCCO2,-4,i,0.67,-1.8,25,67,112
CN1/C(=C/C2CC(=O)N(c3cccc4ccccc34)C2=O)C(C)(C)c2ccccc21 (stereo not given),-2,i,1.1,-3.2,i,39,101
CCOC(=O)C1CCN(c2ncnc3c2c(-c2ccccc2)cn3-c2ccc(C)cc2)CC1,12,i,0.88,.,42,160,105
Cc1cc[n+](-c2[nH]c(=O)sc2/C=N/NC([S-])=Nc2ccccc2)cc1,-6,?,.,-2.7,10,123,87
COC(=O)c1cc2sc(Cl)cc2n1Cc1nc(-c2ccccc2)oc1C,0,i,1,-2.2,.,.,107
COc1cccc(N/C=C/C(=O)c2ccc(Br)cc2)c1,-6,i,1,-1.6,-4,88,.
COc1ccc(-c2cc(C(=O)N3CCOCC3)c3cc(C)ccc3n2)cc1,-4,i,0.95,-2.8,21,58,101
COc1cccc(CC(=O)Nc2ccc3nc(C)sc3c2)c1,-4,i,1,-1.4,-40,84,102
O=C(Nc1ccccc1N1CCCCC1)c1ncoc1-c1ccc(F)cc1,-2,i,0.86,-0.7,-7,65,111
CC1CCCCN1c1nnc(N)s1 (stereo not given),-5,i,0.88,-3.4,.,.,104
CN1C(=O)CC(N2CCC(c3nc4ccccc4[nH]3)CC2)C1=O (stereo not given),16,i,0.76,-2.6,.,.,102
Cc1cccc(C)c1NC(=O)c1c(C)nn(-c2ccccc2)c1Cl,2,i,0.69,-0.9,-36,144,108
CNc1cc(CSc2ccc(Cl)cc2)nc(C)n1,-1,i,0.86,.,18,139,81
C=CCn1c(COc2cccc(C)c2)nnc1SCC(=O)NC(=O)NCc1ccco1,-4,i,0.87,1.3,28,96,90
CC(C)c1ccccc1NC(=O)COC(=O)Cc1c[nH]c2ccccc12,-6,i,0.97,-0.2,-24,117,105
COc1ccc(/C=C/c2ccncc2)cc1OC,3,i,1.2,-0.5,20,108,111

# Continued; the last 2 above are carried over.
canonical_smiles,PKD1 kinase inh,HSV augment,HSV augment primary fold,GALR2 agonist,Insulin prom inh,Insulin prom inh cell count,RGS16-Gao HTS
CC(C)c1ccccc1NC(=O)COC(=O)Cc1c[nH]c2ccccc12,-6,i,0.97,-0.2,-24,117,105
COc1ccc(/C=C/c2ccncc2)cc1OC,3,i,1.2,-0.5,20,108,111
Fc1ccc(CSc2nnc(Cc3sc(-c4ccccc4)nc3-c3ccccc3)o2)cc1,2,i,0.98,-1.5,39,78,92
CC1(C)Cc2cccc(OCC(=O)Nc3cccnc3)c2O1,0,i,1.1,0.2,43,69,101
C/C(=N/NC(=O)c1ccco1)c1cccc(NC(=O)c2ccc(C)s2)c1,3,i,0.97,0.7,-36,47,68
O=C(NCc1cccnc1)C1CCN(S(=O)(=O)c2cccs2)CC1,-13,i,1,-1.3,.,.,72
CCCC12CN3CC(C)(CN(C1)C3c1ccc(OC)cc1)C2=O (stereo not given),6,i,1,1.5,.,.,103
CCN(CC)c1ccc(N=Cc2ccccc2[N+](=O)[O-])cc1,-9,i,0.64,-0.3,-175,86,58
CSCCC(NC(=O)OC(C)(C)C)C(=O)NC(CC(C)C)C(N)=O (stereo not given),10,i,0.98,-0.3,-9,26,95
Cn1c(N)c(C(=O)Nc2ccc3ccccc3c2)sc1=S,-2,.,.,2.5,-42,78,42
CCC(C)(C#CCN1CCCCC1)OC(C)=O (stereo not given),-2,i,1,.,-33,72,101

# Assay outcomes as filed in PubChem BioAssay.
